Source: PubChem BioAssay (ICCB-Longwood Screening Facility, Harvard Medical School)
MbtI inh = MbtI salicylate synthase inhibitors, primary screen, biochemical, fluorescence intensity | inhibition, %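 (about 17 µg/mL by stock and volumes)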 | P9WFX0 | hit rate 0.89% among 100,000 | purified MbtI enzyme, fluorescence intensity read-out;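 active means above 50% in both replicates, above 80% if mildly self-fluorescent; inactive means the rest, strongly fluorescent compounds included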;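 further: 0% = mean of negative and 100% = mean of positive controls; one replicate is shown; some compounds called inactive have numbers as strong as hits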
Target sequence (P9WFX0 whole entry, looked up): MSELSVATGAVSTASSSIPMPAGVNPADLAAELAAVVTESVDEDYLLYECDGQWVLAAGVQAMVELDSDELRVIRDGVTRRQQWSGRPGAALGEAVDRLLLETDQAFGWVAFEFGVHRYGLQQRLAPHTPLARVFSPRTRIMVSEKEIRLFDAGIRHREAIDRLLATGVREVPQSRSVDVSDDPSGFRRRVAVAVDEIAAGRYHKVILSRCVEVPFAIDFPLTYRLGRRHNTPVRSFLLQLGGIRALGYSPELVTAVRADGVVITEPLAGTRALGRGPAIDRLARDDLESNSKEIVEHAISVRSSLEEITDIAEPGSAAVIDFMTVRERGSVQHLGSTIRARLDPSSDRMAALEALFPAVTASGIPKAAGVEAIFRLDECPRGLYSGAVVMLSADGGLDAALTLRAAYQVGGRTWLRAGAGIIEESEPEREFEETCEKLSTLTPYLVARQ
* marks the source's active call; other numbers are inactive results; i = inactive. These rows are one share of the data; count on the stated rates, not on these rows.

item | SMILES | MbtI inh
1 | O=C(c1ccc2c(c1)OCO2)N(Cc1cccs1)C1(C(=O)NC2CCCC2)CCCCC1 | -5
2 | CCCOc1ccc(Cc2nnn(CC(=O)O)n2)cc1 | -20
3 | Cn1c(S(C)(=O)=O)nc2ccccc21 | -11
4 | CCOC(=O)CN1c2ccccc2NC(=O)CC1C (stereo unspecified) | -8
5 | CCOC(=O)Nc1ccc(Br)cn1 | -5
6 | Cc1cc(S(=O)(=O)Nc2cccnc2)c(C)s1 | -1
7 | Cc1ccc2oc(C(=O)OC(CN(C)C)CN(C)C)cc2c1 | i
8 | COc1ccc(NC(=O)c2c(N)sc(-c3ccccc3)c2C)cc1 | 36
9 | Nc1cnn(-c2ccccc2)c(=O)c1Cl | -3
10 | CCOC(=O)N1CCC2(CC1)CC(=O)c1cc(O)ccc1O2 | 4
11 | O=c1cc(-c2ccccc2Cl)c2c([nH]1)CCC2 | -91
12 | Cc1ccc(Nc2ncc(C(=O)NCCCN3CC(C)CC(C)C3)c3ccccc23)cc1Cl (stereo unspecified) | 108
13 | C=CCSc1nnc2c(n1)OC(c1ccccn1)N(C(=O)CC)c1ccccc1-2 (stereo unspecified) | -16
14 | CC(C)(Cc1cc(=O)c2ccccc2[nH]1)C1CCCCC1 | -13
15 | c1ccc(-c2cnnc(N3CCCC3)n2)cc1 | 4
16 | CC(C)(C)OC(=O)N1CCC(C(=O)O)CC1 | -12
17 | CCCCC1CC(CSc2ncn[nH]2)OC1=O (stereo unspecified) | -14
18 | N#Cc1ccccc1OCC(=O)NC1CC1 | 38
19 | OCC(O)C(O)C(O)c1cnn(-c2ccccc2)n1 (stereo unspecified) | 3
20 | NC(=O)c1cc(-c2ccco2)nc2ccccc12 | -132
21 | CCc1ccccc1NC(=O)C1NC(=O)CC1c1ccccc1 (stereo unspecified) | -10
22 | COc1ccc(C)cc1N1C(=O)Cn2cccc2C1C(=O)NC1CCC(C)CC1 (stereo unspecified) | -5
23 | CC1CC(C)(C)NC(=S)N1CCC(=O)N1c2ccccc2CC1C (stereo unspecified) | -4
24 | CC(=O)Nc1c(O)n(C)c2ccccc12 | -1
25 | COCc1c(C(=O)OC)nnn1-c1nonc1N | -2
26 | CC(C)(C)C1CCC(C(=O)O)CC1 (stereo unspecified) | 3
27 | c1cc2c(cc1CCNC1CCCCCC1)OCO2 | -10
28 | COC(=O)C1C(=O)C2=C(CC1C)NC(=O)CC2c1ccccc1 (stereo unspecified) | -3
29 | O=C(NCc1ccccc1)NC1(C(F)(F)F)Oc2ccccc2O1 | -11
30 | COC(=O)COc1ccc2c(c1)C(=O)c1cc(OCC(=O)OC)ccc1-2 | -17
31 | CCOC(=O)COC1=C(c2ccccc2)C(=O)c2ccccc2C1=O | 3
32 | O=c1[nH]c2ccc(NCc3ccc(OCc4ccc(Cl)cc4)cc3)cc2[nH]1 | -9
33 | COc1ccc(-c2nc3c(=O)n(C)c(=O)nc-3n(C)n2)cc1OC | -3
34 | CCc1c(O)nc(SCCN(CC)CC)n(-c2ccccc2)c1=O | -13
35 | COC(=O)COC(=O)Cc1c(C)n(C(=O)c2ccc(Cl)cc2)c2ccc(OC)cc12 | -17
36 | Nc1ccc(CC(C(=O)O)c2ccccc2)cc1 (stereo unspecified) | -6
37 | CCN1CCN(CCCNC(=O)c2n[nH]c(=O)c3ccccc23)CC1 | 8
38 | COc1ccc(OC(C)C(=O)Nc2ncn[nH]2)cc1 (stereo unspecified) | 1
39 | CC1C(=O)C(C)C(c2ccc3c(c2)OCO3)NC1c1ccc2c(c1)OCO2 (stereo unspecified) | -7
40 | COc1ccc(CCNC(=O)C2CCCNC2=O)cc1OC (stereo unspecified) | -6
41 | CCCC1C(C#N)=C(N)Oc2n[nH]c(CC(=O)OCC)c21 (stereo unspecified) | -1
42 | Fc1ccc(Cc2nnc(Cc3ccccc3)o2)cc1 | -4
43 | CCOC(=O)CC1=CC(C)(CC(=O)OCC)C(C#N)(C#N)C(N)=C1C#N (stereo unspecified) | -9
44 | NC(=O)C1CCCCN1C(=S)Nc1ccc(OC(F)F)cc1 (stereo unspecified) | 112
45 | O=c1[nH]ncc(N2CCc3ccccc3C2)c1Cl | -10
46 | COc1ccc(CCNc2nc(C)cc(=O)[nH]2)cc1OC | -6
47 | O=C(Oc1ccccc1O)c1ccccc1 | -5
48 | COc1ccc(C(C(=O)Nc2ccc(C(C)C)cc2)N(Cc2ccco2)C(=O)c2cnccn2)cc1 (stereo unspecified) | 0
49 | CCN(CCN)c1ccc2c(=O)[nH][nH]c(=O)c2c1 | 8
50 | OC(CC#CCN1CCOCC1)(c1ccccc1)C1CCCC1 (stereo unspecified) | -13
51 | CCOc1ccc(C(=O)N2CCC(Cc3ccccc3)CC2)cc1 | -12
52 | COc1ccc(NC(=O)C2CCCNC2=O)cc1 (stereo unspecified) | -6
53 | Cc1cc(C(=O)N2CCNCC2)c(-c2ccccc2)o1 | 19
54 | Cc1ccc2[nH]c(=O)c3cc(C(=O)NC(C)C)sc3c2c1 | -79
55 | O=C(c1ccccc1)c1ccc2[nH]c(=O)c(=O)[nH]c2c1 | -3
56 | COCCN1C(=O)c2ccccc2C(C(=O)NCCCN2CCC(C)CC2)C1c1ccc(F)cc1 (stereo unspecified) | -9
57 | C=C(C)C1CCC(C)OC1c1ccc2c(c1)OCO2 (stereo unspecified) | -12
58 | O=C(O)Cc1ccc2c3c(cccc13)CC2 | 11
59 | COC(=O)c1c(C)oc2cc(Br)c(OC)cc12 | -8
60 | CC(=O)Oc1ccc2c(c1)cc(C)n2C | -21

(listing goes on)
item | SMILES | MbtI inh
61 | COC(=O)c1cc2c(Cl)nc3ccc(C)cc3c2s1 | -7
62 | Nc1c(N2CCCCC2)c2ccccc2oc1=O | -8
63 | O=C(O)c1ccc(CNCc2ccccc2)cc1 | -16
64 | c1ccc2c(c1)OCC(CSc1nnc3c(n1)[nH]c1ccccc13)O2 (stereo unspecified) | -9
65 | c1ccc(CN2CCCC(c3ccccc3)C2)cc1 (stereo unspecified) | -11
66 | CNc1nc2[nH]c(=O)c3c(c2s1)OC(N)=C(C#N)C3c1cccc(F)c1 (stereo unspecified) | -18
67 | CCC(C)(NC(=O)c1ccccn1)C(=O)NC1CCCC1 (stereo unspecified) | -7
68 | C=CCn1c(SCC(=O)Nc2ccc(OC)cc2)nc2cc3ccccc3cc2c1=O | 15
69 | COc1ccc(C(=O)C(C)(C)NO)cc1 | -3
70 | CC(=O)NC1(C)CCC(C(C)(C)C#N)C1 (stereo unspecified) | -14
71 | CCOC(=O)c1cc2c(=O)n3ccccc3nc2n(C)c1=NC(=O)c1cccc(C)c1 | 72
72 | CC1(C)Oc2ccc3ccc(=O)oc3c2C(/C=N/O)=C1Cl | -14
73 | O=C1c2ccccc2C(=O)N1Cc1ccccc1 | -13
74 | O=C1CCCC2=C1C(c1cccs1)Nc1ccccc1N2 (stereo unspecified) | -14
75 | CCOc1ccc(OCC)c(NC(=O)CSCCc2ccccn2)c1 | -1
76 | O=C(O)c1ccccc1-n1cnnn1 | -16
77 | Cc1cc2nnnn2c(N(C)S(=O)(=O)c2ccccc2)n1 | -10
78 | Cc1ccc(CNC(=O)Cc2ccc(-n3cccc3)cc2)cc1 | -3
79 | CCOC(=O)c1nn(-c2ccc(Cl)cc2)c(=O)c2c(N)scc12 | 20
80 | O=C(O)CCC(=O)N1CCN(C(=O)c2ccco2)CC1 | -2
81 | CCOC(=O)N1CCC(NC(=O)c2cc(Sc3ccc(Cl)cc3)nc3ccccc23)CC1 | 5
82 | CC1CC(C)(C)NC(=S)N1CCC(=O)Nc1ccc(Cl)cc1 (stereo unspecified) | 18
83 | CC(C(=O)O)n1cnc2c1c(=O)[nH]c(=O)n2C (stereo unspecified) | 1
84 | CC(=O)Nc1ccc2c(c1)ncn2C(C)(C)C | -18
85 | COC(=O)C1=C(C(=O)c2ccccc2)C(c2ccccc2)n2nnnc2N1 (stereo unspecified) | 4
86 | CC1(C)CC(CC(=O)O)C(=O)O1 (stereo unspecified) | 15
87 | O=C(CC(c1ccccc1)c1ccccc1O)N1CCCC1 (stereo unspecified) | -10
88 | O=C1c2cccc(Oc3ccc(Cl)cc3)c2C(=O)N1CC1CCCO1 (stereo unspecified) | -8
89 | CC(O)c1c(O)ccc2ccc(=O)oc12 (stereo unspecified) | 89
90 | O=S(=O)(NCC(c1ccccc1)N1CCNCC1)c1ccc(Cl)cc1 (stereo unspecified) | -18
91 | CC1(C)CC(=O)C2=C(C1)c1c(ccc3ccccc13)NC2c1ccncc1 (stereo unspecified) | 84
92 | CCN(CC)C(=O)c1sc2nc(C)cc(C)c2c1N | 4
93 | O=C1OCCN1S(=O)(=O)c1ccc(Cl)cc1 | -2
94 | Cc1nc2cc(S(=O)(=O)N3CCC(C(=O)O)CC3)ccc2n1C1CCCC1 | 2
95 | CCN(Cc1ccccc1)C1CCN(Cc2ccc(SC)cc2)CC1 | -4
96 | Cc1c(C(=O)O)sc2nc3n(c(=O)c12)CCC3 | 14
97 | CCS(=O)(=O)CCSc1nc2c(cc1C#N)CCCC2 | -12
98 | CC1Cn2c(nnc2-c2ccccc2O)S1 (stereo unspecified) | -85
99 | COc1ccc2nnnn2n1 | -9
100 | Cc1cc(C)c(NC(=O)CCCN2CCN(C)CC2)c(C)c1 | -1
101 | CCn1c2ccccc2c2nnc(SCC(=O)N3CCCc4ccccc43)nc21 | -8
102 | O=C(O)c1cc(-c2ccc3c(c2)OCO3)on1 | -10
103 | CNC(=O)CC1SC(N)=NC1=O (stereo unspecified) | -5
104 | CCOC(=O)CC(=O)C1CCN(C(=O)OC(C)(C)C)CC1 | -14
105 | O=C1CCCN1c1ccc(S(=O)(=O)Nc2cccc(CCc3ccccn3)c2)cc1 | -12
106 | CCCOc1cccc(C(=O)O)c1 | -4
107 | CCOC(=O)CC1(N)CCCCC1 | -1
108 | C=CCOc1ccc(C(=O)n2cc(Br)cn2)cc1 | -14
109 | Cc1sc2c(=O)n3c(nc2c1C(=O)NC1CCCCC1)CCCCC3 | 0
110 | O=C(O)c1ccccc1NCc1ccncc1 | -72
111 | CC(C)n1ncc(C(N)=O)c1N | -8
112 | O=C(O)c1cccc2c1C(=O)N(Cc1cccnc1)C2 | -9
113 | CC(C)CC(C(=O)NC1CCCCC1C)N1C(=O)c2ccccc2C1=O (stereo unspecified) | -10
114 | CC(NC1CCOC(C)(C)C1)c1ccccc1 (stereo unspecified) | -6
115 | CCOC(=O)C(Cc1ccccc1)C(=O)Nc1cccc(C)n1 (stereo unspecified) | -10
116 | COc1cc2nc3n(Cc4ccccc4)c4ccccc4n3c(=O)c2cc1OC | 0
117 | CC(=O)NC1=NC(=O)CS1 | -7
118 | CCOC(=O)CNCc1ccc(Cl)cc1 | -13
119 | CC1(C)CC(NC(=O)c2ccccc2)CC(C)(C)N1 | -6
120 | CN(C)c1nccc(Nc2ccccc2)c1C#N | -40

10 records drawn at random from the list so far:
item | SMILES | MbtI inh
113 | CC(C)CC(C(=O)NC1CCCCC1C)N1C(=O)c2ccccc2C1=O (stereo unspecified) | -10
107 | CCOC(=O)CC1(N)CCCCC1 | -1
112 | O=C(O)c1cccc2c1C(=O)N(Cc1cccnc1)C2 | -9
115 | CCOC(=O)C(Cc1ccccc1)C(=O)Nc1cccc(C)n1 (stereo unspecified) | -10
116 | COc1cc2nc3n(Cc4ccccc4)c4ccccc4n3c(=O)c2cc1OC | 0
108 | C=CCOc1ccc(C(=O)n2cc(Br)cn2)cc1 | -14
110 | O=C(O)c1ccccc1NCc1ccncc1 | -72
109 | Cc1sc2c(=O)n3c(nc2c1C(=O)NC1CCCCC1)CCCCC3 | 0
117 | CC(=O)NC1=NC(=O)CS1 | -7
111 | CC(C)n1ncc(C(N)=O)c1N | -8

Next section.
item | SMILES | MbtI inh
121 | CCOC(=O)c1cnn(-c2ccccc2)c1N | -7
122 | CC(=O)Nc1ccc(S(=O)(=O)N(CCO)Cc2ccccc2)cc1 | -9
123 | C1=CC2c3cc(-c4ccccc4)ccc3NC(c3ccncc3)C2C1 (stereo unspecified) | 7
124 | C=CCc1c(O)nc2n(c1=O)CCCS2 | 5
125 | O=C(NCC1CCCO1)c1csc2c1CCCCC2 (stereo unspecified) | -10
126 | COc1ccc(CCn2c(N)c(-c3nc4ccccc4s3)c3nc(C#N)c(C#N)nc32)cc1OC | -9
127 | O=c1[nH]cc(NC2CCCCC2)c(=O)[nH]1 | -12
128 | CCc1nnc2n1Nc1nc3ccccc3nc1S2 | -8
129 | Nc1cccnc1N1CCOCC1 | -27
130 | O=C(Nc1nonc1NC(=O)c1ccccc1)c1ccccc1 | 1
131 | Cc1ccc(CNC(=O)C2C3C=CC4(CN(Cc5cccs5)C(=O)C24)O3)cc1 (stereo unspecified) | -18
132 | Cn1c(=N)n(CC(=O)C(C)(C)C)c2ccccc21 | -27
133 | O=C(CCCN1CCN2CCCC2C1)c1ccc(F)cc1 (stereo unspecified) | -10
134 | Oc1cccnc1Cc1ccccc1 | 2
135 | Cc1cc(OCC(=O)NCc2ccco2)cc(C)c1Cl | 1
136 | c1ccn(-c2nonc2-c2nnc(-c3nonc3-n3cccc3)o2)c1 | 1
137 | Nc1nonc1C(=O)OCc1ccccc1Cl | 0
138 | Cc1nc(N)[nH]c(=O)c1CCO | -5
139 | Cc1c(C(=O)N2CCOCC2)[nH]c2c1C(=O)CC(c1ccccc1Cl)C2 (stereo unspecified) | -8
140 | Cc1ccc(C2=NCCNC2=O)c(C)c1 | -3
141 | Cc1c(CNC2CCC(C)CC2)c(C(=O)O)c(C)n1Cc1ccccc1 (stereo unspecified) | -4
142 | Cc1ccccc1CNC(=O)Cc1cccs1 | -7
143 | CCn1ccnc1C(O)c1cc(OC)ccc1OC (stereo unspecified) | -4
144 | CCN(CC)CC(O)Cn1c(C)c(C)c2ccccc21 (stereo unspecified) | -2
145 | O=C(O)c1cn[nH]c1-c1ccccc1 | -3
146 | CC1CC(C)(C)NC(=S)N1CC(=O)N1CCC(Cc2ccccc2)CC1 (stereo unspecified) | 1
147 | COc1ccc(Cl)cc1S(=O)(=O)n1ccnc1C(C)C | -5
148 | CCC(=O)Nc1ccc2oc(-c3ccccc3Br)nc2c1 | -12
149 | CCC(Sc1nc2ccccc2o1)C(N)=O (stereo unspecified) | -6
150 | Cc1ccc(S(=O)(=O)N(Cc2nccn2C)C(C)C)cc1 | -15
